# Six1-Eya2 inh – qHTS Assay for Inhibitors of the Six1/Eya2 Interaction; AlphaScreen GST-Six1/His-Eya2 binding, biochemical; hits give low values; control for the full effect not named in the record; activity change, % (test concentration not listed); 0.56% of 360,000 active; AID 651725, 2012; in the data active = activity change below about -65%; inconclusive = about -30% to -65%; inactive = above about -30%; further: on the % scale 0 is the no-effect control and ±100 the full control effect; compound concentration not given in the record
# Target sequence (O00167 whole entry, looked up): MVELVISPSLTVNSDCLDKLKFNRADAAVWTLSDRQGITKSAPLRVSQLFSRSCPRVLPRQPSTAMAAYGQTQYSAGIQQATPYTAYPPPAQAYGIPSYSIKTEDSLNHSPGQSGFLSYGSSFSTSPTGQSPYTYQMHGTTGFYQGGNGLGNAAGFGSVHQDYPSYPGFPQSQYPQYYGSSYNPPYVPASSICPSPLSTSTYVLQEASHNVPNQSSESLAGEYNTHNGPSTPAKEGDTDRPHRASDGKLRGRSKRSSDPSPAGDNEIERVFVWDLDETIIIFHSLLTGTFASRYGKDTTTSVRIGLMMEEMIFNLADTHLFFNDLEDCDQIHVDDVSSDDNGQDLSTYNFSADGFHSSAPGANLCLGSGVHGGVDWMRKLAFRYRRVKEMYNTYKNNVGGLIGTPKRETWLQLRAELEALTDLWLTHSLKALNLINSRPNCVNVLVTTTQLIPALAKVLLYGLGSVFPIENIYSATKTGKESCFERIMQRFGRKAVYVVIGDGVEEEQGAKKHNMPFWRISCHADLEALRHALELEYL
# Target sequence (Q15475 whole entry, looked up): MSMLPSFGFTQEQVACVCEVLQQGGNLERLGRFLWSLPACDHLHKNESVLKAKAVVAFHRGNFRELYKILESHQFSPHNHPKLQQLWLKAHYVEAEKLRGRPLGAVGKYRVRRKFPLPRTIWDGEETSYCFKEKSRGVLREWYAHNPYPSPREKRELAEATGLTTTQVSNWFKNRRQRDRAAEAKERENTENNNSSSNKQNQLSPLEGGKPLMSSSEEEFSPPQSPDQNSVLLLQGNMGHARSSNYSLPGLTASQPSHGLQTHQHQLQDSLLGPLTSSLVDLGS
#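 Homogeneous AlphaScreen proximity assay pairing GST-Six1 with His-tagged Eya2 (added as 5X mix: 250 nM and 500 nM) in 50 mM Tris pH 8.0, 300 mM NaCl, 1 mM TCEP. Glutathione donor and nickel acceptor beads; 1 h, 37 °C, dark.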
# TRPML1 agonist – qHTS for Agonists of the Human Mucolipin Transient Receptor Potential 1 (TRPML1); 0.12% of 410,000 active; activation, % (test concentration not listed); TRPML1-expressing cells, Ca2+ dye fluorescence, FDSS; host cell line not named in the record; reference of the full effect not given here; Mucolipin-1 (Homo sapiens), Q9GZU1; in the data active = activation above about 50%; inconclusive = about 30% to 50%; inactive = below about 30%; further: 0% is about no effect; the text of the record puts the active cut at 80%
#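 TRPML1-DL cells, Tet-induced overnight (~16 h, 37 degrees C), loaded 45-90 min at room temperature with Ca8 no-wash calcium dye plus quencher. FDSS fluorescence: 10 s baseline, compound pin-transfer, 110 s agonist read, then EC80 54-4 (4uM final) and 110 s antagonist read.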
# CtBP-E1A inh – qHTS Assay for Inhibitors of the CtBP/E1A Interaction | CtBP / adenovirus E1A interaction (AlphaScreen) | AlphaScreen GST-E1A/His-CtBP binding, 1536-well; hits give low values; control for the full effect not named in the record | 0.49% of 340,000 active | activity change, % (test concentration not listed); in the data active means activity change below about -65%; inconclusive means about -30% to -65%; inactive means above about -30%; further: on the % scale 0 is the no-effect control and ±100 the full control effect; compound concentration not given in the record
#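 Homogeneous bead-based format: GST-tagged E1A captured on glutathione donor beads, His-tagged CtBP on nickel acceptor beads; compounds precede bead addition by 2 h at 37 °C.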
# PINK1 expr mod – A Quantitative High throughput Screen to Identify Chemical Modulators of PINK1 Expression; Potency, µM (doses to about 76.6 µM), for inactives: at the highest dose activation (PINK1 increase), most hits filed as activators; 0.2% of 410,000 active; AID 624263, 2012; PINK1 immunofluorescence, high-content cytometry, 24 h; active = well fitted activation curve with a large enough effect; inconclusive = small, poorly fitted or top-dose-only effect; inactive = flat fitted curve, though single readings scatter; cell line not stated here;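 further: potency means the concentration at half of the fitted maximal effect; % of control where 0% means no effect; nearly all actives have a fitted effect of over 65% in size; a mitochondrial uncoupler was the plate control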
#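 PINK1 protein, normally rapidly degraded, was detected by immunofluorescence after 24 hour compound treatment of a stable cell line. Titration data (5 concentrations) came from laser-scanning cytometry, with CCCP-treated wells as controls.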
# D2 ag – Beta-Arrestin HTS for Positive Allosteric Modulators of the Human D2 Dopamine Receptor: Agonists. 0.084% of 360,000 active. activation, % (test concentration not listed). D(2) dopamine receptor (Homo sapiens), P14416. DiscoveRx PathHunter D2 beta-arrestin, luminescence, 90 min; 100% = 57 uM dopamine signal; in the data active = activation above about 40%; inconclusive = about 15% to 40%; inactive = below about 15%; further: compound concentration not given in the record; the text of the record calls up to 30% inactive
#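 Agonist mode: compounds alone added to overnight-plated D2 PathHunter cells for 90 min at 37 C, with 57 uM final dopamine (EC100) defining full response. Beta-arrestin recruitment detected by chemiluminescent reagent, read after 1 h at ambient temperature.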
# D2 PAM – Beta-Arrestin HTS for Positive Allosteric Modulators of the Human D2 Dopamine Receptor: Potentiators | D(2) dopamine receptor (Homo sapiens), P14416 | DiscoveRx D2 beta-arrestin cells, luminescence, 90 min; 100% = 57 uM dopamine signal | potentiation, % (test concentration not listed) | 0.23% of 360,000 active; active = potentiation of 50% or more; inconclusive = 30% to 50%; inactive = 30% or less;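 further: compound concentration not given in the record; tested on top of an EC20 dose of dopamine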
#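 D2 cells co-treated with compound plus 50 nM dopamine (EC20) for 90 min at 37 deg C to detect potentiation. Beta-arrestin recruitment was read as enzyme-fragment luminescence after 1 h at ambient temperature. Full response was set by 57 uM dopamine.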
# * hit, by the source's call; ? = inconclusive; . = not tested or not shown; [ ] = dose if it differs, or a comment. No enrichment for hits; overall some 1.3% were active at least once.
SMILES,Six1-Eya2 inh,TRPML1 agonist,CtBP-E1A inh,PINK1 expr mod,D2 ag,D2 PAM
O=C(NCc1ccco1)c1ccc(S(=O)(=O)N2CCCCCC2)cc1,-1,1.6,-7,3.8%,1.8,-2
COCCN(C(=O)c1ccco1)c1nc(-c2ccc(OC)cc2)cs1,-6,0.5,-1,0.2%,-0.2,16
COc1ccc(NC(=O)CN(C)CC(=O)N2CCCCCC2)cc1,9,0.2,-7,-1.0%,-6.8,-3
N#Cc1ccccc1S(=O)(=O)NC(=O)[C@H]1O[C@@H](n2cnc3c(N)ncnc32)[C@H](O)[C@@H]1O,6,-0.5,-11,-0.3%,-5.4,-8
COc1ccc2c(c1)OC/C(=C/c1cccs1)C2=O,3,3.2,-1,9.8%,-2.1,-2
Cc1ccc(NC(=O)Cc2nc(CSc3nnc(-c4ccc5c(c4)OCO5)o3)cs2)cc1,-2,1.7,-2,2.1%,2.4,6
O=C(CC(c1ccccc1)c1ccccc1)Nc1ccc(O)cc1,-7,-0.3,-2,-2.0%,-9.2,-7
COc1ccc(C(=O)Nc2nc(C)c(C(=O)N(C)C)s2)cc1OC,0,0.0,-1,5.2%,-1.6,3
CC1CN(C(=O)[C@@H]2CCCN2S(=O)(=O)c2ccc(Cl)cc2)CC(C)O1 (stereo not given in full),-3,-0.4,7,2.3%,-0.3,-4
CSc1nc(Oc2ccc(F)cc2)c2ccccc2n1,22,3.9,9,9.1%,0.0,-9
Cc1ccc(S(=O)(=O)N2CCN(C(=O)CSc3ncn[nH]3)CC2)cc1,3,-0.2,17,-1.7%,-8.7,-8
O=C1CC(N2CCCCCC2)C(=O)N1c1ccc2c(c1)OCO2 (stereo not given),3,0.4,9,.,0.4,4
CCOC(=O)/C(C(C)=O)=C1\OC(=O)c2ccccc21,0,2.3,3,2.8%[38.3 µM],-1.8,-15
CCOC(=O)c1c(C)[nH]c(C)c1S(=O)(=O)N1CCN(c2cccc(C)c2)C(C)C1 (stereo not given),-25,1.3,.,-0.7%,0.1,-14
Cc1ccnc(N2CCCC(C(=O)NC3CC3)C2)n1 (stereo not given),15,-0.5,0,1.1%,-0.3,6
Cc1ccc(SC(c2ccc(C)cc2)C(Cn2cncn2)C(=O)c2ccccc2)cc1 (stereo not given),1,4.1,-6,3.4%,-1.4,-10
O=C(c1cc(-c2cccs2)on1)N1CCN(c2ccc(F)cc2)CC1,-4,0.6,-2,2.9%[38.3 µM],1.2,9
CCOC(=O)c1cc(-c2ccc(OC)cc2F)nc2c1c(C)nn2CCC#N,4,2.8,8,1.6%[38.3 µM],-3.9,-10
O=C(NCCO)c1cccc(-c2cccc3nccn23)c1,-6,-0.1,-16,0.4%,-5.0,-8
O=C(Nc1cccc2ccccc12)c1ccccc1Cl,3,2.1,.,2.1%,-2.5,-11

# Next section, starting with the last three of the part before.
SMILES,Six1-Eya2 inh,TRPML1 agonist,CtBP-E1A inh,PINK1 expr mod,D2 ag,D2 PAM
CCOC(=O)c1cc(-c2ccc(OC)cc2F)nc2c1c(C)nn2CCC#N,4,2.8,8,1.6%[38.3 µM],-3.9,-10
O=C(NCCO)c1cccc(-c2cccc3nccn23)c1,-6,-0.1,-16,0.4%,-5.0,-8
O=C(Nc1cccc2ccccc12)c1ccccc1Cl,3,2.1,.,2.1%,-2.5,-11
Cc1ccc(-c2nnn(CC(=O)N(CCO)C(C(=O)NC3CCCCC3)c3ccncc3)n2)o1 (stereo not given),-4,-0.8,.,-0.6%,-0.1,-1
CCCCn1c2c(c(=O)n(C)c1=O)C(c1ccc(OC)cc1)N1CCCCCC1=N2 (stereo not given),2,2.4,-1,2.4%,-3.1,-16
CNc1nnc(-c2ccc(N(C)C)cc2)s1,-3,-0.5,8,1.1%[38.3 µM],1.0,10
CCn1c2ccccc2c2cc(NC(=O)C3CCN(S(=O)(=O)c4cccs4)CC3)ccc21,6,-0.2,1,.,0.5,-8
Cc1nc(N2CCC(C)CC2)c2nnn(Cc3ccccc3)c2n1,11,0.0,13,-0.1%,-0.9,-34
C=CCn1c(N(C)C)nc2c1c(=O)[nH]c(=O)n2C,4,-0.1,-4,0.2%,-4.1,-6
O=C1S/C(=C\c2ccc(O)c([N+](=O)[O-])c2)C(=O)N1Cc1cccc([N+](=O)[O-])c1,-3,0.9,.,40µM*,-15,-7
O=C1OC[C@@H]2CCCN2C(=O)[C@@H](CC(=O)N(CCO)Cc2ccccc2)C/C=C\CC[C@H]1Cc1ccc(F)cc1,-4,-0.8,3,-0.3%,1.0,0
CSCCOC(=O)c1[nH]c2c(c1C)C(=O)CC(c1ccco1)C2 (stereo not given),-21,0.0,-3,18%,-0.5,2
COc1ccc(OC)c(S(=O)(=O)Nc2ccc(Oc3ccccc3)cc2)c1,-1,0.7,-1,-6.6%[38.3 µM],1.0,-2
CCCN(CCC)Cc1c(C(=O)N/N=C/c2ccsc2)nnn1-c1nonc1N,-2,3.3,1,0.3%,1.9,-4
O=C(c1cnc2sccn2c1=O)N1CCN(c2ccccc2Cl)CC1,14,-0.4,6,-1.0%,-7.1,13
COCCCNC(=S)N1CCN(C(=O)c2ccco2)CC1,1,-0.4,7,1.1%,1.7,-1
CC1(C)CC(=O)C=C(N2CCNCC2)C1,8,1.1,-17,-2.9%,0.3,3
Cc1ccc(CNc2ncnc(N)c2[N+](=O)[O-])cc1,19,-0.4,21,0.3%,2.3,1
O=C(CNC(=O)c1ccc(Cl)cc1)OC1CCOC1=O (stereo not given),-1,0.3,.,-0.5%,1.2,-2
O=C(Cc1ccccc1)Nc1ccc(CN2CCOCC2)cc1,0,1.4,7,.,0.5,-11
O=S(=O)(Cc1ccccc1)N1CCCC1,5,1.4,1,1.7%[38.3 µM],-2.8,-3
COc1ccc([C@@H]2[C@@H]3C(=O)N(C(C)(C)C)C(=O)[C@@H]3[C@]3(CC(C)C)C(=O)N(c4ccc(C(F)(F)F)cc4)C(=O)N23)cc1,5,0.3,.,2.0%,-2.3,-10
CN(Cc1cccs1)C(=O)CN1C(=O)c2ccccc2S1(=O)=O,6,2.4,-3,1.4%,1.3,19
Cc1oc(-c2ccccc2Cl)nc1CS(=O)(=O)CC(=O)N1CCOCC1,4,0.4,-4,1.4%,4.0,1
Cc1ccc2cccc(OCc3ccc(F)cc3)c2n1,6,-1.3,.,4.3%,3.2,-3
CC(=O)c1cc2c(cc1NC(=O)Nc1cccc(Cl)c1)OCCO2,-5,1.5,6,7.2%,-6.5,-11
COc1ccc(OC)c(N(C(=O)c2ccco2)C(C(=O)NC2CCCC2)c2cc(OC)c(OC)c(OC)c2)c1 (stereo not given),-3,-0.6,-2,2.4%,0.6,3
O=C(CS(=O)(=O)c1c[nH]c2ccccc12)Nc1ccc(F)cc1,7,-0.5,5,-0.7%,-8.1,-8
CCOc1ccc(CCNC(=O)CS(=O)Cc2nc(-c3ccc(OC)cc3)oc2C)cc1OCC (stereo not given),-8,-0.9,.,3.0%,1.6,-5
O=C(COc1cccnc1[N+](=O)[O-])NCc1cccs1,9,-0.3,22,0.4%,-2.0,-27
Cc1ccc(N=C(N(C)C)P(=O)(N(C)C)N(C)C)c(C)c1,3,-0.9,2,-0.7%,-0.8,-4
CCOC(=O)C1CCCCN1C(=O)CCc1nnc(-c2ccc3c(c2)OCO3)o1 (stereo not given),-1,0.0,2,-0.7%,-1.6,7
Cc1c(C(=O)Nc2ccc(S(=O)(=O)N3CCOCC3)cc2)cccc1[N+](=O)[O-],3,.,.,-0.4%,0.7,-8
O=C(CCC1CCCN(C(=O)C2=CCCCC2)C1)N1CCN(c2ccccn2)CC1 (stereo not given),0,0.2,-3,-3.3%,-1.6,-3
Cc1ccc(C(=O)C(C)OC(=O)Cc2n[nH]c(=O)c3ccccc23)cc1C (stereo not given),4,-0.6,4,2.0%,-2.6,-19
CCCOC(=O)c1ccc(Oc2cn[nH]c2-c2ccc(OCC(=O)NN)cc2O)cc1,-7,0.2,1,4.2%,-4.6,-4
CCC(=O)Nc1cccc(Oc2nc(C)cc(C)c2C#N)c1,-3,-0.5,0,1.4%,0.3,-2
CCCCNc1ccc(C(=O)Nc2cccc(C)n2)cc1[N+](=O)[O-],-22,1.2,-24,?,1.5,-3
O=C(c1ccc(F)cc1)N1CCN(Cc2ccccc2)CC1,-3,-0.2,0,1.3%,-7.3,-15
CNS(=O)(=O)c1cccc(C(=O)OCC(=O)c2cc(C)n(-c3ccc4c(c3)OCO4)c2C)c1,-21,-0.9,-16,-0.8%,-0.3,4
CCOC(=O)c1cnn(-c2sc(C(=O)OCC)c(C)c2C(=O)OCC)c1N,0,0.6,-2,10%[38.3 µM],1.6,3
O=C(Nc1nc(-c2ccccc2)cs1)c1ccco1,1,-0.6,0,1.7%,0.6,-7
CC(C)N1C(=O)CCC1C(=O)NCc1cccs1 (stereo not given),1,-0.1,-2,0.3%,-3.9,-5
COC(=O)Nc1ccc(S(=O)(=O)NNC(=O)c2c(O)c3ccccc3[nH]c2=O)cc1,4,0.6,0,5.6%,-1.2,-4
CCOC(=O)C1(CC2CCCCO2)CCN(C(=O)Nc2ccc(C(=O)OC)cc2)CC1 (stereo not given),-4,0.1,.,-0.5%,-3.6,-5
COc1ccc2[nH]c(=O)c(CN(Cc3cccs3)C(=S)Nc3cccc(C)c3)cc2c1,4,3.0,3,-1.4%,1.8,3
COc1ccccc1CN(C)C[C@H]1OCc2cnnn2CCCC(=O)N([C@@H](C)CO)C[C@@H]1C,2,0.8,9,3.1%,2.1,9
N#C/C(=C\c1cccn1S(=O)(=O)c1cccc([N+](=O)[O-])c1)S(=O)(=O)c1ccc(F)cc1,-6,-0.2,-6,0.5%,4.5,8
Cc1nnc(SCC(=O)Nc2ccc3c(c2)OCO3)n(N)c1=O,-14,-0.4,-2,-0.3%,-2.5,-2
Cc1cccc(/C=C/c2onc(C)c2[N+](=O)[O-])n1,1,0.1,2,-1.1%,-1.8,-9
Cc1cc(NC(=O)c2cc([N+](=O)[O-])ccc2Cl)no1,2,0.2,-4,-1.0%,6.7,-10
CCOc1cc(N2CCOCC2)c(OCC)cc1NC(=O)COc1ncnc2ccc(Br)cc12,3,0.7,-1,5.3%,0.6,12
O=C1C=CC(=O)N1c1ccc2c(c1)C(NC(=O)C(F)(F)F)c1ccccc1-2 (stereo not given),0,7.5,-1,9.2%,-3.9,-49

# 2 entries picked at random from the list so far:
SMILES,Six1-Eya2 inh,TRPML1 agonist,CtBP-E1A inh,PINK1 expr mod,D2 ag,D2 PAM
Cc1c(C(=O)Nc2ccc(S(=O)(=O)N3CCOCC3)cc2)cccc1[N+](=O)[O-],3,.,.,-0.4%,0.7,-8
CCOC(=O)/C(C(C)=O)=C1\OC(=O)c2ccccc21,0,2.3,3,2.8%[38.3 µM],-1.8,-15

# Screening data: PubChem BioAssay, National Center for Advancing Translational Sciences (NCATS)
